Screens as filed in PubChem.
Hsc70 ATP site: small molecules displacing fluorescent ligand from Hsc70 – biochemical, fluorescence polarization, primary screen (AID 568); Hsc70 fluorescence polarization, probe displacement; higher % means a stronger effect; strong numbers were not always called active; displacement, % at 20 µM; hits with a dose series show IC50 in µM; 83,000 tested, under 10 active;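 active = displacement above 50% without optical interference and an IC50 on retest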;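 note: ATPase domain with a fluorescein-tagged ATP probe; 0% = vehicle and 100% = excess ADP; read after one hour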
WNV NS2B-NS3 inh: WNV NS2B-NS3 proteinase inhibition; P06935; WNV NS2B-NS3 protease, fluorogenic substrate Ex360/Em465; active compounds read low; z-score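 (tested at a level between 10 and 100 µM)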; actives 0.18% (n = 65,000);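 active = z-score at -3 or under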;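 note: score is relative to mean and spread of the compound wells of a plate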
Target sequence (P06935 1371-1501 limits assumed): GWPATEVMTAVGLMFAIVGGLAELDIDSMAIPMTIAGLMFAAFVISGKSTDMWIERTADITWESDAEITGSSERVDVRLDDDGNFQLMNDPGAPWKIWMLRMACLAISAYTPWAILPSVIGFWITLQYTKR
Target sequence (P06935 1502-1679 limits assumed): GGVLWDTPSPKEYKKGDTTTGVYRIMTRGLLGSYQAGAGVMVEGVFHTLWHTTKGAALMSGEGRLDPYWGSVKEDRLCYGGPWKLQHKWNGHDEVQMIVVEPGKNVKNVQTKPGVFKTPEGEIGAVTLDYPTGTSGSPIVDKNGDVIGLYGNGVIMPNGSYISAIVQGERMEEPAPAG
MT1-MMP promoter: inhibitors of MT1-MMP promoter transcription, cell-based, luciferase reporter, luminescence (AID 618); calls from a first round at 10 µM; hits with a dose series show EC50 in µM; actives 0.62% (n = 87,000); MT1-MMP promoter luciferase reporter cells, luminescence;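 active = over half of the reporter light lost at 10 µM or EC50 under 50 µM; inactive = the rest and hits that failed the dose series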;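 note: actives suppress MT1-MMP promoter-driven transcription so potencies describe inhibitors; HT1080 fibrosarcoma cells; overnight exposure; toxic or luciferase-blocking compounds were not removed from the actives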
* marks the source's active call; other numbers are inactive results; i = inactive; . = not tested or not shown.

molecule	Hsc70 ATP site	WNV NS2B-NS3 inh	MT1-MMP promoter
COc1ccc(Nc2ncc(C(=O)N3CCC4(CC3)OCCO4)c3ccccc23)cc1	-0.9%	-0.23	i
CCC(C)NC(=O)c1c(N)n(CC2CCCO2)c2nc3ccccc3nc12 (stereo not drawn)	-1.8%	0.45	i
CC(=O)NC1CC2CCC(C1)N2 (stereo not drawn)	-0.7%	0.02	i
Cc1cc(OC(=O)c2ccco2)c2c3c(c(=O)oc2c1)CCC3	0.2%	0.48	i
CCOC(=O)c1c(NC(=O)c2c(N)n(CCCOC)c3nc4ccccc4nc23)sc2c1CCCC2	4.5%	.	i
CCOC(=O)C1C(=O)NC23CCCC2C1c1ccccc1O3 (stereo not drawn)	4.7%	-0.63	i
CCOC(=O)c1c(-c2ccccc2)oc2ccc(OC(=O)N(C)C)cc12	-3.8%	0.99	i
COC(=O)c1ccccc1OP1(=O)COc2ccccc2OC1	-8.9%	-0.21	i
CCCCN1C(=O)NC(=O)C2(Cc3c(nc4ccccn4c3=O)N3CCc4ccccc4C32)C1=O (stereo not drawn)	2.9%	-0.02	i
COc1cc(Cn2c(N)c(C(=O)NCc3ccco3)c3nc4ccccc4nc32)cc(OC)c1OC	-5.1%	.	i
CCOC(=O)/C(CCCN(CC)CC)=N\O	3.6%	1.46	i
C=Cn1c(P(=S)(N2CCOCC2)N2CCOCC2)cc2c1CCCC2	-3.9%	0.67	i
COc1ccc(CCNC(=O)c2c(N)n(CCN3CCOCC3)c3nc4ccccc4nc23)cc1OC	2.5%	.	i
COc1ccccc1CN1CCN(C(=O)COc2cccc(C)c2)CC1	2.6%	1.47	i
O=C(Nc1ccc(OC(=O)N2CCCC2)cc1)N1CCOCC1	-0.4%	1.06	i
O=C(CN1C2CCC1CC(O)(c1cccnc1)C2)Nc1ccc2c(c1)OCO2 (stereo not drawn)	3.6%	-0.58	i
CCCCN1C(=O)C(C2c3ccccc3C(=O)N2Cc2ccccc2)C(=O)NC1=S (stereo not drawn)	-5.7%	.	i
O=C(CN1CCN(CCO)CC1)Nc1ccc(Cl)cc1C(=O)c1ccccc1	-4.2%	0.07	i
CC(=O)CC(C)(C)n1c[n+](C)nn1	-1.0%	0.43	i
O=C1NC(=O)C2(Cc3c(nc4ccccn4c3=O)N3CCCCCC32)C(=O)N1Cc1ccccc1 (stereo not drawn)	-3.5%	-1.18	i
Cc1ccc(CCN2CC(C(=O)N3CCC4(CC3)OCCO4)CC2=O)cc1 (stereo not drawn)	-5.3%	-1.32	i
CCOc1ccc(-n2c(O)c(C=Nc3ccc(N4CCOCC4)cc3)c(=O)[nH]c2=O)cc1	4.9%	-0.58	i
COc1ccc(C2=NCC(=O)N(CC(=O)NCc3ccco3)c3sc4c(c32)CCCC4)cc1OC	1.3%	-0.02	i
Nc1cccc(N=Cc2c(O)n(Cc3ccc(F)cc3)c(=O)[nH]c2=O)c1	1.5%	-0.07	i
Nc1c(C(=O)NCCCc2ccccc2)c2nc3ccccc3nc2n1Cc1cccs1	-1.2%	.	i
O=P(c1ccccc1)(c1ccccc1)N1CCCCC1	6.0%	0.22	i
COc1ccc(N2C(=O)NC(=O)C(CCc3ccncc3)(CCc3ccncc3)C2=O)cc1	0.6%	.	i
CC(=NCC1CCCO1)c1c(O)n(-c2ccccc2)c(=O)[nH]c1=O (stereo not drawn)	3.8%	-1.35	i
O=C1CC(=O)N(c2cccc(Cl)c2)C(=O)N1	0.9%	1.13	i
N#Cc1ccccc1Cn1cc(C(=O)C2CC2)c2ccccc21	-3.3%	-0.2	i
CCN1CC=C(c2c[nH]c3ccccc23)CC1	1.6%	1.54	i
NS(=O)(=O)c1ccc(N=Cc2c(O)n(C3CCCCC3)c(=O)n(C3CCCCC3)c2=O)cc1	-3.5%	1.01	i
O=C1C2CCN(CC2)[C@@H]1Cc1ccc2ccccc2c1O	-3.9%	-0.95	i
CC(=O)N1CCN(c2ccc(N=Cc3c(O)n(-c4ccc(Cl)cc4)c(=O)[nH]c3=O)cc2)CC1	-4.5%	-1.04	i
CCCCNC(=O)Nc1ccc(C(O)(C(=O)OCC)C(F)(F)F)cc1 (stereo not drawn)	-1.0%	-0.05	i
CN(C)c1cc(N)c2c(n1)CCC2 (tested in a mixture with another compound)	2.9%	1.85	i
CCN(CC)c1ccc(N=Cc2c(O)n(-c3cc(OC)ccc3OC)c(=O)[nH]c2=O)cc1	-51.7%	0.33	i
CC(=Nc1ccc2c(c1)CCC2)c1c(O)n(C2CCCCC2)c(=O)[nH]c1=O	-27.5%	0.1	i
Cc1ccc(S(=O)(=O)Cc2ccc(C(=O)N3CCC4(CC3)OCCO4)o2)cc1	8.4%	0.99	i
NC12CN3CN(CN(C3)C1)C2 (tested in a mixture with another compound)	-2.4%	-0.44	i
COC(=O)CC1(Cc2ccccc2)C(=O)NC(=O)NC1=O	1.2%	-0.35	i
Oc1c(Br)cc(Br)cc1CN1CCN(Cc2ccccc2)CC1	9.2%	.	i
CCC(=NCc1ccco1)c1c(O)n(-c2ccc(OC)cc2)c(=O)[nH]c1=O	-10.7%	1.66	i
COC(=O)N(c1ccc(OC)cc1)P1(=S)OCCC(C)O1 (stereo not drawn)	-6.4%	-0.6	i
CCN1CCN(Cc2cc(Br)cc(OC)c2O)CC1	-2.2%	0.25	i
O[C@H]1C2CCC1C(N1CCCCC1)CC2 (stereo partly drawn)	1.4%	-0.33	i
CCCN1CCC2(CC1)NC(CO)(CO)CO2	-1.3%	0.52	i
CCCCCCOc1ccc(CN2CCN(C)CC2)cc1	-2.5%	0.61	i
CC1CN=C(Nc2cccc3ccccc23)S1 (stereo not drawn)	12.7%	1.01	i
CC(=O)Nc1ccc(OC(=O)N(C)C)cc1	-0.1%	-0.97	i
NC(=O)CN1C2CCC1CC(NC(=O)C1CC1)C2 (stereo not drawn)	-3.5%	0.18	i
C=CCC1(CN2CCCC2=O)C(=O)NC(=O)NC1=O	-2.0%	.	i
CCCCn1c(O)c(C(C)=NC(C)c2ccccc2)c(=O)[nH]c1=O (stereo not drawn)	8.3%	-0.29	i
Cc1cc(C)nc(NC2=NCCS2)n1	-2.9%	.	i
COCCNC(=O)c1c(N)n(Cc2ccco2)c2nc3ccccc3nc12	1.5%	.	i
ClC1=CCC2CN(CCN3CCCCC3)CC2C1 (stereo not drawn)	-0.6%	-0.15	i
CCCCn1c(O)c(C=NC2CC3CCC2(C)C3(C)C)c(=O)[nH]c1=O (stereo not drawn)	-8.0%	0.42	i
CN1CCN(Cc2ccccc2C(F)(F)F)CC1	-11.6%	0.56	i
Cc1cc(C)c(NC2=NCCCS2)c(C)c1	1.1%	.	i
CCCCCCOC(=O)c1ccccc1N	3.5%	0.15	i

The listing continues:
molecule	Hsc70 ATP site	WNV NS2B-NS3 inh	MT1-MMP promoter
CC1SC2(CN3CCC2CC3)NC1=O (stereo not drawn)	-6.7%	1.4	i
CCOC(=O)c1c(C)c(C(=O)N2CCC3(CC2)OCCO3)c(C)n1CC	-3.2%	-1.49	i
CCC(=NCc1ccc2c(c1)OCO2)c1c(O)n(C)c(=O)n(C)c1=O	32.4%	0.68	i
COC(=O)C1C2c3ccccc3OC1(C)N=c1s/c(=C/c3cn(C)nc3C)c(=O)n12 (stereo not drawn)	2.5%	-1.25	i
c1ccc2c3c([nH]c2c1)CNCC3	1.0%	-0.98	i
COC(=O)CC1NC2CCCCC2NC1=O (stereo not drawn)	2.8%	-0.45	i
CCCC1COC(Cn2cncn2)(c2ccc(Cl)cc2Cl)O1 (stereo not drawn)	-3.4%	.	i
O=C(Cn1cc(C(=O)c2ccccc2)c2ccccc21)NCc1ccco1	-0.4%	0.52	i
CCC(C)NS(=O)(=O)c1ccc(OCC(=O)N2CCN(CC)CC2)cc1 (stereo not drawn)	-1.6%	.	i
CC(=C1C(=O)c2ccccc2C1=O)N1CCN(CCN=Cc2c(O)n(C)c(=O)n(C)c2=O)CC1	-1.9%	-0.5	i
Cc1nc2cc(-c3cccc(F)c3)nn2c(C)c1CCC(=O)N1CCC2(CC1)OCCO2	-1.1%	-0.82	i
CN(C)CCCN=Cc1c(O)n(CCc2ccc(F)cc2)c(=O)[nH]c1=O	-4.0%	.	i
CCOC(=O)CC1=C(C(=O)OCC)C2(C(=O)N1)C(C(=O)OC)=C(N)Oc1ccccc12 (stereo not drawn)	-1.5%	0.95	i
CN(C)C1=NP(N(C)C)(N(C)C)=NC(c2ccccc2)=N1	-1.2%	-0.95	i
CCC1CCCCN1P(=O)(c1ccc(C)o1)C(C)(C)C (stereo not drawn)	-3.9%	0.46	i
CCOc1ccc(-n2c(O)c(C=NCCN3CCNCC3)c(=O)[nH]c2=O)cc1	-4.7%	-0.42	i
O=P(O)(O)C12CC3CC(CC(C3)C1)C2	3.8%	0.8	i
CC(=O)c1ccc2c(c1)C1C(Cl)C(Sc3ccccc3[N+](=O)[O-])CC1C(c1ccccc1[N+](=O)[O-])N2 (stereo not drawn)	-6.5%	.	i
CCOC(=O)c1c(C)n(Cc2ccccc2)c2ccc(OCC(O)Cn3nc(C)cc3C)cc12 (stereo not drawn)	1.3%	.	i
CCC1(c2ccccc2)C(=O)N(COC)C(=O)N(COC)C1=O	6.5%	-0.75	i
Cc1cc(CN(C)C)c(OC(=O)N(C)C)cc1C	-0.2%	0.29	i
CCC(COC(=O)c1cc(OC)c(OC)c(OC)c1)(c1ccccc1)N(C)C (stereo not drawn)	1.0%	0.08	i
CCSc1nnc([C@@H](N)Cc2ccccc2)o1	-4.6%	.	i
Cc1cc(NC(=O)COC(=O)c2c(C)nn(Cc3ccccc3Cl)c2Cl)no1	0.1%	-0.68	i
Cc1nnc2ccc(N3CCN(C)CC3)nn12	3.5%	-0.52	i
O=C(Cc1cccs1)N1CCC2(CC1)OCCO2	2.0%	1.24	i
CCOC(C(=O)OCCCN(CC)CC)(c1ccccc1)c1ccccc1	3.6%	.	i
COC(=O)c1cc2c(s1)=NC=NP=2(N1CCOCC1)N1CCOCC1	6.8%	0.11	i
Cc1cc(C=O)c(C)n1CC1CCCO1 (stereo not drawn)	-0.3%	.	i
CN(C)P1(N(C)C)=Nc2c(c(N)nn2C)C(c2ccccc2)=N1	-4.7%	-0.87	i

New compounds follow:
Order of values – Hsc70 ATP site	WNV NS2B-NS3 inh	MT1-MMP promoter
> C1=C(c2c[nH]c3ccccc23)CCNC1
 : -2.2%	0.17	i
> CN(C)C1=NC(N(C)C)=NP(N(C)C)(N(C)C)=N1
 : -2.7%	1.42	i
> Nc1ccc(S(=O)(=O)N2CCCCC2c2cccnc2)cc1 (stereo not drawn)
 : 2.6%	0.26	i
> CC(C)(C)c1nc(N2CCN(C(=O)c3ccco3)CC2)c2nnn(Cc3ccccc3Cl)c2n1
 : -2.6%	1.07	i
> CCC(=NCCCN(CC)CC)c1c(O)n(-c2ccccc2)c(=O)[nH]c1=O
 : -5.5%	-0.75	i
> Cc1cc(S(=O)(=O)NCc2ccccc2)ccc1OCC(=O)N1CCN(C)CC1
 : 0.8%	-0.08	i
> C=CCn1c(O)c(C(CC)=NC2CC2)c(=O)[nH]c1=O
 : -0.4%	.	i
> COc1ccc(C(=O)N2CCOCC2)cc1S(=O)(=O)N1CCC(C)CC1
 : -1.0%	-0.74	i
> COc1ccc(CCN(C)Cc2c(F)cccc2F)cc1OC
 : 1.5%	-0.53	i
> Cc1cc(S(=O)(=O)NCC(C)C)ccc1OCC(=O)N1CCN(Cc2ccccc2)CC1
 : 1.5%	0.66	i
> O=C1CC(c2ccccc2)CC(O)=C1C=NCCN1CCN(C(=O)Cc2ccccc2)CC1 (stereo not drawn)
 : -4.3%	-0.42	i
> COC(=O)c1ccc(COc2cc(C)cc3oc(=O)c4c(c23)CCCC4)o1
 : 8.8%	-1.18	i
> O=c1cccc2n1CC1CC2CN(c2ncnc3c2cnn3-c2ccc(Cl)cc2)C1 (stereo not drawn)
 : 8.0%	-0.93	i
> O=C(c1cc(=O)[nH]c2ccc(Br)cc12)N1CCC2(CC1)OCCO2
 : -1.3%	0.42	i
> CC(C)Oc1ccc(Cc2c(O)[nH]c(=O)[nH]c2=O)cc1
 : -4.4%	-0.65	i
> CCn1cc(C(=O)N2CCC3(CC2)OCCO3)c(=O)c2cc(S(=O)(=O)N3CCCC3)ccc21
 : 1.5%	.	i

As a working copy, part of the list above.
Order of values – Hsc70 ATP site	WNV NS2B-NS3 inh	MT1-MMP promoter
> Nc1ccc(S(=O)(=O)N2CCCCC2c2cccnc2)cc1 (stereo not drawn)
 : 2.6%	0.26	i
> CC(C)(C)c1nc(N2CCN(C(=O)c3ccco3)CC2)c2nnn(Cc3ccccc3Cl)c2n1
 : -2.6%	1.07	i
> CCC(=NCCCN(CC)CC)c1c(O)n(-c2ccccc2)c(=O)[nH]c1=O
 : -5.5%	-0.75	i
> Cc1cc(S(=O)(=O)NCc2ccccc2)ccc1OCC(=O)N1CCN(C)CC1
 : 0.8%	-0.08	i
> C=CCn1c(O)c(C(CC)=NC2CC2)c(=O)[nH]c1=O
 : -0.4%	.	i

This is a subset. The share of hits here may be higher or lower than overall.
